# MITF inhib: inhibitors of MITF, primary screen, MITF inhibitor project, cell-based, luminescence; 37,000 compounds, 0.28% hits; AID 2240, 2010; inhibition, % (concentration not given with the values); TRPM1 promoter luciferase, 24 h;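 active = most replicates at 85% or more, or half of them and the mean; inconclusive = half reach 85% but not the mean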;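 note: human melanocyte line stably carrying TRPM1 promoter luciferase reporter; 0% = vehicle wells and 100% = a positive control; the first replicate is given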
# PD-1 reversal: activators reversing PD-1 mediated T-cell inhibition, primary screen, luminescence, primary human CD4 T cells, PD-L1 beads; CellTiter-Glo 96 h; activation, % (test concentration not listed); 29,000 tested, under 10 active;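 active = replicate mean of 50% or more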;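 note: 0% = median vehicle wells and 100% = positive control; 100 nL library stock added to about 50 µL; numbers are from one replicate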
# YB-1 expression: inhibitors of YB-1 gene expression, primary screen, cell-based, fluorescence; 30,000 compounds, 0.37% hits; U2OS, qRT-PCR YB-1 vs CDIP delta delta Cp, 16 h; hits give high values; zero = DMSO, each unit about twofold; delta delta Cp (YB-1 minus CDIP) (no concentration beside the values);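 active = delta delta Cp rounded down to an integer at or above 3, about 3 SD of DMSO wells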;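 note: higher means less YB-1 transcript or more CDIP transcript relative to DMSO; stock transfer was 100 nL into about 100 µL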
# Shh pathway inh: Hedgehog pathway signaling inhibitors, primary screen, luminescence, Shh-LIGHT2 cells, Gli-luciferase; AID 2313, 2010; inhibition, % (no concentration beside the values); 22,000 compounds, 2.1% hits; Shh-LIGHT2 Gli-luciferase reporter, 30 h;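 active = replicate mean of 65% or more; inconclusive = mean lower but half the replicates past it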;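 note: pathway switched on by Shh-conditioned medium diluted 1 in 25 in low serum; 100 nL library stock added to about 40 µL; 0% = median of neutral wells and 100% = positive control level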
# * hit, by the source's call; ? = inconclusive; . = no result given. Only part of the results is shown (hit frequency here may not be typical).
SMILES,MITF inhib,PD-1 reversal,YB-1 expression,Shh pathway inh
COc1ccc(C(=O)Nc2ccc3c(c2)C(=O)N(C)C3=O)cc1OC,-0.4,0.2,0.0476,-8.5
C[C@@H]1CN([C@@H](C)CO)C(=O)c2cc(NC(=O)NC3CCCCC3)ccc2O[C@H]1CN(C)Cc1ccc(Cl)c(Cl)c1,42.0,.,0.188,-13.5
O=C(Cc1ccccc1)Nc1cccc(S(=O)(=O)c2cccc(NC(=O)Cc3ccccc3)c2)c1,-6.1,-0.3,-0.0423,.
C[C@@H]1CN([C@H](C)CO)C(=O)c2cccc(NC(=O)CCCCCC(=O)Nc3ccccc3N)c2O[C@@H]1CN(C)Cc1ccc(Oc2ccccc2)cc1,21.5,-3.5,-0.246,.
C[C@H]1CN([C@@H](C)CO)C(=O)c2cc(N(C)C)ccc2O[C@H]1CN(C)C(=O)NC1CCCCC1,-13.1,-0.5,-0.515,.
COC(=O)CCSc1ncnc2c1sc1nc(N3CCOCC3)c3c(c12)CCCC3,-40.8,-3.4,.,.
CCc1ccc(CCC(=O)Nc2ccc(Br)cc2)o1,-21.3,-0.1,.,.
C[C@H](CO)N1C[C@H](C)[C@@H](CN(C)C(=O)Nc2ccc(F)cc2)Oc2c(NC(=O)Nc3cccc4ccccc34)cccc2C1=O,-10.6,-3.3,0.101,2.3
COc1ccc(S(=O)(=O)Nc2ccc3c(c2)CC(=O)N([C@@H](C)CO)C[C@H](C)[C@H](CN(C)S(=O)(=O)c2ccc(C)cc2)O3)cc1,-9.6,2.0,0.279,13.4
C[C@@H]1CN([C@H](C)CO)C(=O)c2cc(NC(=O)Cc3cn(C)c4ccccc34)ccc2O[C@@H]1CN(C)Cc1ccc(C(F)(F)F)cc1,5.9,-0.5,-0.00929,.
O=C1c2ccccc2C(=O)N1CCCc1nc(-c2cccc([N+](=O)[O-])c2)no1,-16.6,2.3,.,.
C[C@H]1CN([C@@H](C)CO)C(=O)c2cc(NS(=O)(=O)c3ccc(F)cc3)ccc2O[C@@H]1CN(C)S(=O)(=O)c1ccccc1,4.0,0.0,0.435,-9.2
CC(=O)Nc1ccc(NS(C)(=O)=O)cc1,4.2,-0.2,-0.374,-10.0
CC1CCC23CCC(O[C@@H]4O[C@H](CO)[C@@H](O)[C@H](O)[C@H]4O)C12C(C=O)=CC3(C)C (stereo partly specified),.,.,-0.103,-5.9
CC(C)(C)C(=O)Nc1ccccc1Cc1ccccc1,-7.8,0.7,0.781,-15.7
COc1ccc(S(=O)(=O)Nc2ccc3c(c2)CC(=O)N([C@@H](C)CO)C[C@H](C)[C@@H](CN(C)Cc2ccncc2)O3)cc1,8.1,0.9,-0.195,1.9
C[C@H](CO)N1C[C@H](C)[C@H](CN(C)C(=O)Nc2ccc(F)cc2)Oc2ccc(NC(=O)c3ccncc3)cc2C1=O,-7.5,-1.1,-0.211,-29.6
C[C@H]1CN([C@@H](C)CO)C(=O)c2cccc(NC(=O)c3ccncc3)c2O[C@H]1CN(C)S(C)(=O)=O,-4.4,1.5,0.39,-26.6
C[C@H](CO)N1C[C@H](C)[C@@H](CN(C)C(=O)Nc2cccc3ccccc23)Oc2c(NS(=O)(=O)c3ccc(F)cc3)cccc2C1=O,10.8,-0.2,-0.295,-13.3
C[C@@H]1CN([C@@H](C)CO)C(=O)Cc2cc(NC(=O)Cc3cn(C)c4ccccc34)ccc2O[C@@H]1CN(C)C(=O)Nc1ccc(C(F)(F)F)cc1,47.3,-1.4,0.318,-4.6
C[C@@H]1CCCCO[C@H](CN(C)S(=O)(=O)c2ccc(Cl)cc2)[C@@H](C)CN([C@H](C)CO)C(=O)c2cc(NC(=O)Cc3ccccc3)ccc2O1,16.8,.,-0.0879,37.7
CNC[C@H]1Oc2c(NC(=O)c3cnccn3)cccc2C(=O)N([C@H](C)CO)C[C@H]1C,0.5,0.3,-0.328,-41.1
C[C@H](CO)N1C[C@H](C)[C@H](CN(C)CC2CCCCC2)Oc2c(NC(=O)c3ccc(-c4nccs4)cc3)cccc2C1=O,-10.5,0.9,-0.316,6.8
O=C(CSc1nnc(-c2ccncc2)n1-c1ccc(Cl)cc1)Nc1ccc(C(=O)O)cc1,-2.8,5.1,.,.
COC(=O)c1c(NC(=O)Nc2ccc(Cl)c(Cl)c2)sc2c1C(C(=O)OC)CC2 (stereo unspecified),-15.3,3.8,.,.
C[C@@H]1CN([C@H](C)CO)C(=O)c2cccc(NC(=O)c3nc4ccccc4s3)c2O[C@H]1CN(C)Cc1ccc(C(=O)O)cc1,4.9,-1.5,-0.208,-16.7
NC(=O)CSc1oc(-c2cccs2)nc1S(=O)(=O)c1ccccc1,-3.5,0.7,.,.
C[C@H]1CN([C@@H](C)CO)C(=O)c2cc(NC(=O)C3CC3)ccc2O[C@H]1CN(C)CC1CCCCC1,-5.2,-1.2,-0.42,-60.4
C[C@@H]1CN([C@H](C)CO)C(=O)c2cc(NS(=O)(=O)c3ccc(Cl)cc3)ccc2O[C@@H]1CN(C)C(=O)Nc1ccc(C(F)(F)F)cc1,7.2,.,-0.182,-94.0
C[C@H]1CN([C@@H](C)CO)C(=O)c2cc(NS(=O)(=O)c3ccc(Cl)cc3)ccc2O[C@H]1CN(C)Cc1ccc(-c2ccccc2)cc1,10.1,1.2,0.0749,-9.9
N#Cc1c(NC(=O)CCn2cnc3ccccc3c2=O)sc2c1CCCC2,-12.9,-0.6,.,.
C[C@@H]1CN([C@@H](C)CO)C(=O)c2cc(NC(=O)CCCN(C)C)ccc2O[C@H]1CN(C)S(=O)(=O)c1cn(C)cn1,-12.7,1.9,-0.873,5.7
C[C@@H]1CN([C@@H](C)CO)C(=O)c2cccc(NC(=O)c3cnccn3)c2O[C@@H]1CN(C)Cc1ccncc1,0.3,0.5,2.67,4.5
C[C@H]1CN([C@@H](C)CO)C(=O)c2cccc(NC(=O)c3cnccn3)c2O[C@@H]1CN(C)Cc1ccccc1,-3.7,0.2,-0.0806,-98.2
Cc1ccccc1OCC(O)Cn1c2ccccc2c2ccccc21 (stereo unspecified),48.8,-6.6,-0.191,-9.5
Cc1ccc(S(=O)(=O)Nc2cccc3c2O[C@@H](CN(C)C(=O)Nc2ccc(C(F)(F)F)cc2)[C@@H](C)CN([C@H](C)CO)C3=O)cc1,26.0,.,-0.209,-19.3
CC1CCc2c(sc3ncnc(SCC(=O)Nc4ccc5c(c4)OCCO5)c23)C1 (stereo unspecified),-8.8,0.6,.,.
O=c1c2ccccc2c(-c2ccccc2)nn1Cc1ccccc1,-5.8,0.5,.,9.9
C[C@H]1CN([C@@H](C)CO)C(=O)c2cccc(NC(=O)c3cnccn3)c2O[C@H]1CN(C)CC1CCCCC1,-5.0,-0.3,0.119,30.7
CC(C)NC(=O)N(C)C[C@@H]1Oc2ccc(NC(=O)NC3CCCCC3)cc2CC(=O)N([C@@H](C)CO)C[C@@H]1C,-5.1,-0.2,-0.056,.
COc1ccc(NC(=O)Nc2ccc3c(c2)CC(=O)N([C@@H](C)CO)C[C@@H](C)[C@@H](CN(C)Cc2ccc(-c4ccccc4)cc2)O3)cc1,17.6,1.9,-0.133,?
C[C@@H]1CN([C@H](C)CO)C(=O)Cc2cc(N(C)C)ccc2O[C@@H]1CN(C)C(=O)Nc1ccc(C(F)(F)F)cc1,-7.5,-4.4,0.04,19.7
C[C@H](CO)N1C[C@H](C)[C@H](CN(C)C(=O)NC2CCCCC2)Oc2ccc(NC(=O)Nc3ccccc3)cc2C1=O,-10.6,-0.9,0.109,-20.0
COc1ccccc1NC(=O)CNS(=O)(=O)c1ccccc1,4.4,1.2,.,.
C[C@H]1CN([C@@H](C)CO)C(=O)c2cc(NS(=O)(=O)c3ccccc3)ccc2O[C@@H]1CN(C)Cc1ccc(C(F)(F)F)cc1,3.0,-2.6,-0.0252,32.2
COc1ccc(NC(=O)Nc2ccc3c(c2)C(=O)N([C@@H](C)CO)C[C@H](C)[C@H](CN(C)C(=O)Nc2ccc(F)cc2)O3)cc1,-0.3,0.1,-0.0123,-9.7
C[C@H]1CN([C@@H](C)CO)C(=O)c2cc(NC(=O)NC3CCCCC3)ccc2O[C@H]1CN(C)S(=O)(=O)c1ccc(F)cc1,4.8,-1.2,0.272,.
C[C@H](CO)N1C[C@H](C)[C@H](CN(C)Cc2ccc(Oc3ccccc3)cc2)Oc2ccc(NS(=O)(=O)c3ccc(F)cc3)cc2C1=O,11.1,1.4,0.28,10.1

# Record cards (already shown). Order of screens: MITF inhib, PD-1 reversal, YB-1 expression, Shh pathway inh
# N#Cc1c(NC(=O)CCn2cnc3ccccc3c2=O)sc2c1CCCC2 in the list: -12.9, -0.6, ., .
# CC1CCC23CCC(O[C@@H]4O[C@H](CO)[C@@H](O)[C@H](O)[C@H]4O)C12C(C=O)=CC3(C)C (stereo partly specified) in the list: ., ., -0.103, -5.9
# C[C@@H]1CN([C@H](C)CO)C(=O)c2cccc(NC(=O)c3nc4ccccc4s3)c2O[C@H]1CN(C)Cc1ccc(C(=O)O)cc1 in the list: 4.9, -1.5, -0.208, -16.7

# (listing goes on)
SMILES,MITF inhib,PD-1 reversal,YB-1 expression,Shh pathway inh
COc1ccc(S(=O)(=O)Nc2ccc3c(c2)C(=O)N([C@@H](C)CO)C[C@H](C)[C@H](CN(C)Cc2ccccc2)O3)cc1,-3.3,4.2,-0.0312,.
COC(=O)[C@H]1[C@H]2C[C@@H]3c4[nH]c5cc(OC)ccc5c4CCN3C[C@H]2C[C@@H](OC(=O)/C=C/c2cc(OC)c(OC)c(OC)c2)[C@@H]1OC,-6.0,.,0.213,12.9
CCCCc1ccc(-c2csc(NC(=O)c3ccccc3[N+](=O)[O-])c2C(N)=O)cc1,-11.4,-8.5,.,.
COc1ccc(NC(=O)N(C)C[C@H]2OCCCC[C@@H](C)Oc3ccc(NS(=O)(=O)c4c(C)noc4C)cc3C(=O)N([C@H](C)CO)C[C@@H]2C)cc1,-3.0,.,0.0392,.
C[C@H](CO)N1C[C@H](C)[C@H](CN(C)Cc2ccc(C(=O)O)cc2)Oc2c(NS(=O)(=O)c3cccs3)cccc2C1=O,3.4,1.6,0.438,-35.4
Cc1ccc(S(=O)(=O)N(CC(=O)O)c2ccc(Cl)c(C(F)(F)F)c2)cc1,-11.4,1.1,.,.
CC(C)=CCOc1cc2oc(=O)ccc2cc1O,7.0,.,0.127,7.5
COc1ccc(S(=O)(=O)Nc2ccc3c(c2)C(=O)N([C@@H](C)CO)C[C@H](C)[C@H](CN(C)Cc2ccc(-c4ccccc4)cc2)O3)cc1,14.5,1.6,-0.536,.
Cc1ccc(C(C)C)c(OCC(=O)Nc2ncc(I)cc2C)c1,4.8,-1.9,.,.
C[C@H](CO)N1C[C@H](C)[C@H](CN(C)S(=O)(=O)c2ccc(Cl)cc2)Oc2ccc(NC(=O)Nc3ccc(C(F)(F)F)cc3)cc2C1=O,42.0,0.3,-0.0517,.
C[C@H](CO)N1C[C@H](C)[C@H](CN(C)C)Oc2ccc(NC(=O)Nc3ccccc3)cc2CC1=O,-4.5,1.6,0.0817,19.6
COc1ccc(S(=O)(=O)Nc2ccc3c(c2)CC(=O)N([C@H](C)CO)C[C@@H](C)[C@H](CN(C)C(=O)Nc2ccccc2)O3)cc1,-0.8,1.3,0.0938,-13.8
C[C@@H]1CCCCO[C@H](CN(C)C(=O)NC2CCCCC2)[C@@H](C)CN([C@H](C)CO)C(=O)c2cc(NC(=O)Nc3ccc(F)cc3)ccc2O1,-0.6,.,0.00454,-20.0
COc1cc(/C=C/c2cc(O)cc(O)c2)ccc1O[C@@H]1O[C@H](CO)[C@@H](O)[C@H](O)[C@H]1O,-52.5,-0.3,-0.594,4.3
COc1ccc(NC(=O)Nc2ccc3c(c2)C(=O)N([C@H](C)CO)C[C@@H](C)[C@H](CN(C)CC2CCCCC2)O3)cc1,-0.8,1.1,-0.0516,.
CCc1nnc2sc(-c3ccc(N)cc3)nn12,5.4,-0.4,-0.227,-2.7
C[C@H](CO)N1C[C@H](C)[C@@H](CN(C)S(=O)(=O)c2cccs2)Oc2ccc(NC(=O)c3ccncc3)cc2C1=O,-1.6,1.2,0.186,17.9
C[C@H](CO)N1C[C@H](C)[C@H](CN(C)Cc2ccccc2)Oc2ccc(NC(=O)c3ccncc3)cc2CC1=O,-22.7,-0.8,-0.652,12.8
Cc1noc(C)c1S(=O)(=O)N(C)C[C@@H]1Oc2ccc(NS(=O)(=O)c3cn(C)cn3)cc2CC(=O)N([C@H](C)CO)C[C@H]1C,-1.8,.,0.217,.
CCOC(=O)c1ccc2nc(C(F)(F)F)nc(NCCc3ccc(OC)cc3)c2c1,31.0,-1.3,-0.319,.
C[C@H](CO)N1C[C@H](C)[C@H](CN(C)Cc2ccc3c(c2)OCO3)Oc2ccc(NS(=O)(=O)c3ccccc3)cc2C1=O,-9.3,-1.9,0.0586,20.9
Cc1cc(NC(=O)C2CCCCC2C(=O)O)ccc1NC(=O)c1ccccc1 (stereo unspecified),-4.9,1.2,.,.
Cc1ccc(N(CC(=O)Nc2cccc3ccccc23)S(C)(=O)=O)cc1Cl,9.5,1.5,.,.
